# gsp ag: agonists of gsp mutant (McCune-Albright syndrome) | Potency, µM (highest dose often 76.9 µM), inactives show top-dose activation (cAMP increase), actives largely listed as activators | gsp mutant cells, cAMP HTRF, 30 min; control for the full effect not named in the record | 0.13% of 340,000 active; active = well fitted activation curve with a large enough effect; inconclusive = small, poorly fitted or top-dose-only effect, or another doubt; inactive = no such curve, though single readings can be large or run the other way; cell line not stated here;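 also: phosphodiesterase inhibitor Ro 20-1724 added with compounds to block cAMP breakdown; potency is read from the fitted curve at half-maximal effect; nearly all actives have a fitted effect of over 60% in size; about a fifth of the inactives were tested at one dose only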
#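 Cells stably selected in G418 were plated at 2000/well, grown 16-24 hr, then given compounds in DMSO with the PDE inhibitor […] (300 uM solution added) for 30 min at 37C; cAMP was read by HTRF.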
# TRPML1 ag: agonists of human TRPML1 channel; Q9GZU1; TRPML1-expressing cells, Ca2+ dye fluorescence, FDSS; host cell line not named in the record; reference of the full effect not given here; activation, % (no concentration beside the values); 0.12% of 410,000 active; AID 624414; in the data active = activation above about 50%; inconclusive = about 30% to 50%; inactive = below about 30%; also: 0% is about no effect; the text of the record puts the active cut at 80%
# Target sequence (Q9GZU1 whole entry, looked up): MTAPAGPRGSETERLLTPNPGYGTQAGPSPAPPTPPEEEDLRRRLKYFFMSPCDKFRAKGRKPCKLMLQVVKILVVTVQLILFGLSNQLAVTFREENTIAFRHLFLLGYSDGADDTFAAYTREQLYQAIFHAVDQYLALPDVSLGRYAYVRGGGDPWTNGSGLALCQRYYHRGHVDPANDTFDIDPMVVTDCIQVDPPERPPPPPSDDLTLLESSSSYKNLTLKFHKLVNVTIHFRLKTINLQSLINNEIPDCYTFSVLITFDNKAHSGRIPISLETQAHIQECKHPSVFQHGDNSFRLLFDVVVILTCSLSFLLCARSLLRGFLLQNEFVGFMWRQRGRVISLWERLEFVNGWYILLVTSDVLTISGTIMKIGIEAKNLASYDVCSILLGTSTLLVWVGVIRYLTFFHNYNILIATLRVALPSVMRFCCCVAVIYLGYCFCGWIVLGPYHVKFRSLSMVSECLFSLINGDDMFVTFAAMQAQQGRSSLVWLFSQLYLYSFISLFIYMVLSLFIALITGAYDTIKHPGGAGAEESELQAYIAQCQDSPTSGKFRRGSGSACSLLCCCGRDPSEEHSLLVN
#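 Kinetic FDSS Ca2+ read in Tet-induced TRPML1-DL cells (ABD Ca8 dye plus quencher, 45-90 min RT loading): baseline, then compound, then 110 s agonist window; EC80 agonist 54-4 at 4uM final added afterwards for a 110 s antagonist window.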
# ClpP mod: qHTS Assay for Activators of ClpP | ATP-dependent Clp protease proteolytic subunit (Bacillus subtilis (strain 168)), P80244 | purified B. subtilis ClpP, FRET peptide cleavage, 20 min | Potency, µM (doses to about 57.5 µM), inactives show top-dose activity change, negative = active | 1.9% of 340,000 active; active = well fitted falling curve with a large enough effect; inconclusive = small, poorly fitted or top-dose-only effect; inactive = no such curve, though single readings can be large or run the other way; also: potency is read from the fitted curve at half-maximal effect; the source files actives as falling curves though it sought activators and does not explain the sign; nearly all actives have a fitted effect of over 65% in size; many hits overshoot -100%
# Target sequence (P80244 whole entry, looked up): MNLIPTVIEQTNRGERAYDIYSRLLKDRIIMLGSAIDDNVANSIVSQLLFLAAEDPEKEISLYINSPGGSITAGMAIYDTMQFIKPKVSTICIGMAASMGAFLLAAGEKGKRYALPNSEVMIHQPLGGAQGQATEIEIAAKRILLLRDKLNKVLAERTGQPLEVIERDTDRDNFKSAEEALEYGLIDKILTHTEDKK
#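 Buffer: 100 mM Tris/HCl pH8, 100 mM KCl, 0.05% low protease BSA, 2.5% glycerol, 0.01% Tween-20. ClpP 10 microg/mL final; 20 min RT; delta FRET normalized to ADEP and DMSO controls.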
# gsp antag: gsp mutant antagonism | gsp-mutant cells, cAMP HTRF, 30 min; control for the full effect not named in the record | Potency, µM (series often up to 76.9 µM), without a hit: at the top dose activity change, negative = inhibition, actives largely listed as inhibitors | 0.4% of 340,000 active | AID 624288; active = falling curve of any shape with a large fitted effect; inconclusive = falling curve, mostly with a smaller effect; inactive = flat or rising curve; cell line not stated here;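 also: intracellular cAMP measured with PDE inhibitor Ro 20-1724 present during compound exposure; potency is read from the fitted curve at half-maximal effect; % is scaled to controls: 0 for no effect and ±100 for the full control effect; nearly all actives have a fitted effect of over 65% in size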
#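 Measurement of cellular cAMP by homogeneous time-resolved fluorescence following a 30 min compound exposure at 37C. The PDE inhibitor […] was present throughout; the assay buffer was DPBS with 0.05% BSA and 0.005% Tween 20.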
# TRPML1 inh: blocks the human TRPML1 channel; AID 624415; TRPML1-inducible cells, Ca2+ dye fluorescence, FDSS; active compounds read low; inhibition of EC80 agonist-evoked calcium signal; 0.02% of 390,000 active; activity change, negative = inhibition, % (concentration not given with the values); in the data active means activity change below about -50%; inconclusive means about -30% to -50%; inactive means above about -30%;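 also: stimulus is agonist 54-4 at its EC80 concentration; % is scaled to controls: 0 for no effect and ±100 for the full control effect; the text of the record puts the active cut at -80%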
#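 Tet-induced TRPML1-DL cells loaded with Ca8 no-wash calcium dye were read kinetically on FDSS. Compound addition was followed by EC80 agonist 54-4 (4 uM final); inhibition was read over 110 s.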
# Menin-MLL FL inh: menin-MLL binding inhibition, fluorescein peptide | 290,000 tested, under 10 active | Fluorescence polarization, fluorescein-MLL peptide displacement from menin | FP activity change, % at 61.4 µM | AID 1766; inconclusive = falling polarisation curve, or a change in total fluorescence; inactive = total fluorescence flat and polarisation flat or rising; no compound was filed as active; the % refers to the polarisation; negative = inhibition;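 also: % of control where 0% means no effect; inhibitors lower the polarisation; unlabelled MLL peptide was the positive control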
# * = called active by the depositor; ? = inconclusive; . = not tested or not shown; & = joins results of further samples; [ ] = dose if it differs, or a comment.
# Each structure is followed by: gsp ag, TRPML1 ag, ClpP mod, gsp antag, TRPML1 inh, Menin-MLL FL inh
- Cc1ccc(-n2ncc3c(N4CCC(Cc5ccccc5)CC4)ncnc32)cc1
→ ., 0.7, -2.7%, ., -5.6, .
- CC(OC(=O)c1ccc(NC(=O)CC#N)cc1)C(=O)NC(=O)NC1CCCCC1 (stereo unspecified)
→ 16.3%[15.4 µM], 0.4, -3.6%, -4.0%, -7.1, 9.5
- N#C/C=C(/N)N1CCN(c2ccc(Cl)c(Cl)c2)CC1
→ -38.0%[inhibitor], 0.8, 1.3%, 5.4%, 0.3, 1.5
- Cn1c(=O)c2c(ncn2Cc2cc(-c3ccccc3)no2)n(C)c1=O
→ ?, 0.1, 0.6%, 8.5%, 4.2, -1.2
- O=C(OCC(=O)N1CCOCC1)c1cc(=O)[nH]c2ccccc12
→ -10.8%, 0.3, -21.3%, -11.1%, -18.5, .
- CC(=O)Nc1ccc(NC(=O)C(NC(=O)C2CCC(C)CC2)C(C)C)cc1 (stereo unspecified)
→ ., 2.2, 0.5%, ., -15.3, .
- Cn1[nH]c(=O)c2ccccc2c1=O
→ -6.4%, -0.7, -0.7%, 5.4%, 10.6, 3.4
- O=C(Cn1cnc2cc([N+](=O)[O-])ccc2c1=O)NC1CCS(=O)(=O)C1 (stereo unspecified)
→ 1.5%, 1.1, -2.9%, 8.8%, -4.1, -11.0
- Cc1cc(C)nc(NC(=O)c2cc([N+](=O)[O-])cc([N+](=O)[O-])c2)n1
→ 16.1%, -0.2, -1.9%, 13.1%, -3.7, 3.5
- Nc1c(S(=O)(=O)c2ccccc2)c2nc3ccccc3nc2n1CCN1CCOCC1
→ 12.0%, 0.1, 3.9%, -13.6%, -14.3, -0.3

# For convenience, some entries already given:
# Each structure is followed by: gsp ag, TRPML1 ag, ClpP mod, gsp antag, TRPML1 inh, Menin-MLL FL inh
- Cc1ccc(-n2ncc3c(N4CCC(Cc5ccccc5)CC4)ncnc32)cc1
→ ., 0.7, -2.7%, ., -5.6, .
- CC(OC(=O)c1ccc(NC(=O)CC#N)cc1)C(=O)NC(=O)NC1CCCCC1 (stereo unspecified)
→ 16.3%[15.4 µM], 0.4, -3.6%, -4.0%, -7.1, 9.5
- N#C/C=C(/N)N1CCN(c2ccc(Cl)c(Cl)c2)CC1
→ -38.0%[inhibitor], 0.8, 1.3%, 5.4%, 0.3, 1.5
- Cn1c(=O)c2c(ncn2Cc2cc(-c3ccccc3)no2)n(C)c1=O
→ ?, 0.1, 0.6%, 8.5%, 4.2, -1.2
- O=C(OCC(=O)N1CCOCC1)c1cc(=O)[nH]c2ccccc12
→ -10.8%, 0.3, -21.3%, -11.1%, -18.5, .
- CC(=O)Nc1ccc(NC(=O)C(NC(=O)C2CCC(C)CC2)C(C)C)cc1 (stereo unspecified)
→ ., 2.2, 0.5%, ., -15.3, .
- Cn1[nH]c(=O)c2ccccc2c1=O
→ -6.4%, -0.7, -0.7%, 5.4%, 10.6, 3.4
- O=C(Cn1cnc2cc([N+](=O)[O-])ccc2c1=O)NC1CCS(=O)(=O)C1 (stereo unspecified)
→ 1.5%, 1.1, -2.9%, 8.8%, -4.1, -11.0
- Cc1cc(C)nc(NC(=O)c2cc([N+](=O)[O-])cc([N+](=O)[O-])c2)n1
→ 16.1%, -0.2, -1.9%, 13.1%, -3.7, 3.5

# More compounds.
# Each structure is followed by: gsp ag, TRPML1 ag, ClpP mod, gsp antag, TRPML1 inh, Menin-MLL FL inh
- C/C(N)=C(/C#N)C(=O)CSc1nc2ccccc2c(=O)n1CCCOC(C)C
→ 17.5%, -0.8, ., -6.2%, -2.5, 6.8
- COCCCNC(=O)/C=C/c1ccc(OCc2c(F)cccc2Cl)cc1
→ -12.3%, -0.4, -0.8%, -9.3%, 0.8, 1.1
- CN(C)/C=C1\C(=O)N(c2ccc(F)cc2F)C(c2cccnc2)S1(=O)=O (stereo unspecified)
→ -10.1%[15.4 µM], -0.7, ?, 1.6%, -1.9, -1.5
- Cc1cccc(-c2nnc(C3CCN(S(=O)(=O)c4cccc(Cl)c4)CC3)o2)c1
→ ., 2.9, -1.8%, ., 34.7, .
- COc1ccc(C(=O)Nc2nnc(S(=O)(=O)N3CCOCC3)s2)cc1
→ ?, -0.8&0.8, -8.1%&-13.6%, -4.7%, 3.1&-16.7, .
- COc1ccc(C)cc1NC(=O)c1ccc(OCc2c(C)noc2C)cc1
→ 1.5%, 1.7, ., 3.1%, 5.6, .
- Cc1cccc(Cn2c(=O)n(CCC(=O)NCCc3ccc(Cl)cc3)c(=O)c3sccc32)c1
→ ., 2.6, -1.5%, ., -20.1, .
- O=C(CCSCc1ccc(Cl)cc1)NCCC1=CCCCC1
→ -56.3%[inhibitor], 0.0, -5.3%, -3.3%, 24.9, -3.7
- COc1ccc(-c2nc(CS(=O)CC(=O)NC(C)CCc3ccccc3)c(C)o2)cc1OC (stereo unspecified)
→ 5.0%, 3.8, 4.3%, 3.4%, -4.4, 0.4
- COC(=O)[C@@]1(Cc2ccc(F)cc2)[C@H]2c3cc(C(=O)N4CCCC4)n(CC4CC4)c3C[C@H]2CN1C(=O)c1ccccc1
→ ., 9.7, 1.2%, ., ., 9.4
- COc1ccc(-n2c3c(cc(C(=O)N4CCCCC4)c2=O)C(=O)CC(C)(C)C3)cc1
→ -4.1%, -0.5, -5.1%, 10.4%, 21.4, 4.7
- O=C(C[N+]12CC[N+](CC(=O)c3ccc(F)cc3)(CC1)CC2)c1ccc(F)cc1
→ 28.7%, -0.2, 0.0%, 10.4%, -0.3, .
- CSc1nc2nc3c(c(=O)n2[nH]1)CCC3
→ ?, -0.7, 1.5%, 10.9%, 33.4, 6.3
- COCCNC(=O)Cn1c(=O)n(C)c2ccccc21
→ -20.6%, -0.5, 1.2%, -1.3%, 3.1, -2.2
- O=C(O)c1cccc(-n2sc3ccccc3c2=O)c1
→ -8.3%, -0.1, -1.3%, ?, 2.4, .
- CCN(CC)S(=O)(=O)c1cccc(C(=O)N/N=C/c2ccc(O)c(O)c2O)c1
→ ?, 0.8, -2.3%, -9.3%, -1.2, 4.6
- CCCCNC(=O)c1ccc(CNc2c(N3CCC(C(=O)OCC)CC3)c(=O)c2=O)cc1
→ ?, 0.5&0.3, -3.3%&0.3%, 9.8%&-0.2%, 17.6&-6.1, -0.3
- CCCNC(=O)N1CCN(Cc2ccco2)CC1
→ 3.4%, 0.3, ., 12.9%, 13.1, 0.5
- COC(=O)CC1Oc2ccc(C)cc2NC1=O (stereo unspecified)
→ ?, 0.5, 1.3%, 1.3%, -19.4, 4.1
- C[C@H](NC(=O)c1nc[nH]c1C(=O)N1CCN(c2ccccc2)CC1)C(=O)OCc1ccccc1
→ ., -0.1, -2.6%, -10.6%, 5.4, 0.5
- O=C(NC(=S)NCc1cccnc1)c1cc(Br)ccc1Cl
→ 2.3%, 3.5, -0.8%, -10.2%, 17.7, .
- COc1cccc(SCc2noc(C(=O)NC(C)C)c2C(=O)NC(C)C)c1
→ ., -0.3, -1.3%, -2.1%, 20.5, .
- COc1ccc2cc(C(c3nnnn3C(C)(C)C)N3CCSCC3)c(=O)[nH]c2c1 (stereo unspecified)
→ -9.8%, 2.1, -6.5%, -8.2%, -6.0, -0.6
- CCc1ccc(CNCCNCC(C)O)cc1 (stereo unspecified)
→ -31.0%[inhibitor], 0.3, -2.4%, 12.8%, -6.1, 0.6
- CCOn1c(=O)c(-c2ccc(OC)cc2)[n+]([O-])c2ccccc21
→ -7.4%, -1.0, -0.8%, 4.8%, 3.2, -0.1
- O=C(NCC(=O)N(Cc1cccs1)C(C(=O)NC1CCCCC1)c1ccco1)c1ccco1 (stereo unspecified)
→ 10.0%, -0.8, -1.2%, 7.1%, 1.7, 5.4
- CCOC(=O)C1CCN(C(=O)c2cc3c(ccc4ccccc43)o2)CC1
→ 1.6%[15.4 µM], 0.8, -6.9%, 5.6%, -6.0, .
- O=C(C[C@H]1C/C=C\CCCC(=O)OC[C@H]2CCCN2C1=O)NCCO
→ ., -0.5, -0.8%, 8.1%, -12.3, .
- Cc1ccnc(NS(=O)(=O)c2cnc(Cl)c(Br)c2)c1
→ ?, 0.5, -5.9%, 5.7%, 12.4, 3.3
- Nc1nc(SCCN2C(=O)c3ccccc3C2=O)n[nH]1
→ -12.9%, -0.2, -0.7%, 1.2%, 3.2, -0.5
- Cc1ccccc1Nc1ncccc1C(=O)N1CCOCC1
→ ?, -0.3, 1.6%, 3.0%, 14.4, 0.9
- O=C(Nc1c[nH]c(=O)[nH]c1=O)c1cccc([N+](=O)[O-])c1
→ 3.2%, ., -2.1%, -1.5%, ., 0.0
- CC(C)CN(C(=O)COC(=O)c1c(Cl)ccc(Cl)c1Cl)C1CCS(=O)(=O)C1 (stereo unspecified)
→ -1.8%[15.4 µM], 1.2, ., -10.8%, -0.1, 0.1
- CC1C2=C(CC(C)(C)CC2=O)NC2=C1C(=O)CC(C)(C)C2
→ 14.8%, -0.7, 4.1%, -26.7%, -8.4, -1.4
- COCCCN1C(=O)c2ccc(C(=O)OCC(=O)N(C)c3ccccc3)cc2C1=O
→ -3.9%, -0.4, ., -6.5%, 25.1, 0.1
- Cc1cc(NC(=O)c2ccc(NC(=O)C(C)Oc3ccccc3)cc2)no1 (stereo unspecified)
→ -22.7%, 0.3, 1.6%, 7.7%, 3.0, 1.8
- CCOc1ccccc1CNC(=O)CCn1ccc2cc(S(=O)(=O)N3CCC(C)CC3)ccc21
→ ., 1.7, -3.4%, ., 9.7, .
- CCOc1ccccc1N1CCN(CC(=O)Nc2nnc(CC)s2)CC1
→ 8.5%, -0.2, -3.3%, 0.7%, 7.2, -3.5
- CCCc1nnc(NC(=O)CCC(=O)N2CCC(Cc3ccccc3)CC2)s1
→ 4.9%, 0.4, -2.4%, 1.2%, 1.1, .
- O=C(CSc1nc2ccccc2o1)Nc1ccccc1
→ -10.7%, 1.5, -0.4%, -4.2%, 27.4, -0.6
- CCc1ccc(S(=O)(=O)NCCc2csc(-c3ccccc3)n2)s1
→ -10.3%, 1.8, -0.5%, -23.3%, 0.6, 2.0
- COc1ccc(CN2C(=O)C(Cc3ccccc3)Nc3ncnc(N4CCOCC4)c32)cc1 (stereo unspecified)
→ 24.2%, 0.0&0.4, -2.3%&-1.1%, -2.5%, 3.3&25.8, .
- Cc1nnc(NC(=O)C2=COCCO2)s1
→ -13.6%[15.4 µM], 0.8, ., 4.1%, 6.2, .
- CN(C)CCN(Cc1ccco1)C(=O)c1oc2ccccc2c1NC(=O)COc1ccccc1
→ -35.6%[inhibitor], 1.1, -10.3%, -5.3%, 29.2, -0.2
- CC(=O)c1cccc(NC(=O)Nc2cc3c(cc2N2CCCC2)n(C)c(=O)n3C)c1
→ ., -1.4, -2.6%, ., -16.3, .
- CC(C)(C)C(=O)/C=C(\N)c1ccccn1
→ 5.4%, 0.0, -8.9%, 1.7%, -14.4, -1.4

# Compound activity deposited in PubChem BioAssay by National Center for Advancing Translational Sciences (NCATS).
